Bioassay records as filed in PubChem.
NPYLR7 ag – mosquito NPYLR7 agonism | HEK293T NPYLR7/Galpha15, GCaMP6s calcium fluorescence | activation, % at 10 µM | hit rate 0.15% among 270,000; in the data active = activation above about 40%;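 note: 0% = vehicle and 100% = reference agonist at the receptor; some compounds past the cut are filed as inactive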
NPYLR7 ag max-min – second read-out of NPYLR7 ag, no call of its own (marks repeat the call); activation, %; measured here: Max-Min RFU normalised activation; some inactives read as strong as hits;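 span of the calcium signal over five minutes; 0% = vehicle and 100% = native peptide agonist; compound fluorescence can raise it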
An asterisk follows results filed as active; & = joins results of further samples. Not all compounds are listed; rates above refer to the full screens.

compound | NPYLR7 ag max-min | NPYLR7 ag
CCN(C(=O)c1cccc(NC(=O)[C@@H]2CCC(=O)N2)c1)c1ccccc1 | 5 | 0
CCCCNC(=O)N(C)C(CO)c1ccc(OC)cc1 (stereo not drawn) | 4 | 7
CC(=NNC(=O)Cn1ccc(C(F)(F)F)n1)c1ccco1 | 3 | 4
CCOc1ccc(NC(=O)N2CCC[C@H]2C(=O)N2CCC(C(=O)N3CCCCC3)CC2)cc1 | 2 | -12
CC(C)N(CCC(=O)O)c1nc(Cc2ccccc2)ns1 | 14 | 13
Cc1c(N=C2C=C(Br)C(=O)C(Br)=C2)c(=O)n(-c2ccccc2)n1C | -5 | -5
COc1cc(OC)cc(C(=O)NC2CCN(c3ccccc3C(=O)N3CCOCC3)CC2)c1 | 14 | 20
CN(C)CCN(C(=O)CN1C(=O)c2ccccc2C1=O)c1nc2c(Cl)cccc2s1 | -5 | -3
CNC(=O)c1nn(-c2ccccc2)c(=O)cc1OC | 0 | 3
Cc1cc(-c2nn3c(CN4CCCCC4)nnc3s2)no1 | 2 | 3
CCCNC(=O)Cn1nc(-c2ccco2)c2sc(N3CCCCC3)nc2c1=O | -6 | -2
CCC#CCn1c(=O)n(C(CC)CC)c2ncc(C(=O)O)cc21 | 2 | -1
O=S(=O)(NCCCOCc1ccco1)N1CCCCC1 | -2 | -1
Cc1[nH]c(=O)c(C#N)cc1-c1ccncc1 | -5&3&-19 | -1&20&-1
O=C(c1cnc[nH]1)N1CCC(=Cc2cc(Cl)ccc2Cl)CC1 | -17 | -14
CCc1ccc(CN2CCN(CC=C(C)C)C(CCO)C2)o1 (stereo not drawn) | 2 | 6
CCc1nc2oc3ccccc3c(=O)c2c(=O)n1CCc1ccccc1 | -2 | 1
CCOC(=O)CSc1ccc2nnc(CCNC(=O)c3ccc(F)cc3)n2n1 | -8 | -2
Cc1cc(C(F)(F)F)nc(CCNC(=O)c2c(O)cccc2O)n1 | 1 | -1
CCCCN(C)c1c(CC)nc2ccc(C(=O)NCCNC(C)=O)cn12 | -10 | 3
Cc1cc(OCC(=O)OCC(=O)c2cc(C)n(CC3CCCO3)c2C)ccc1Cl (stereo not drawn) | -5 | -2
O=C(C1CCCCC1)N(CCN1CCOCC1)c1nc2c(F)cc(F)cc2s1 | 4 | 11
O=C(c1cc(C(F)(F)F)ccc1Cl)N1CC[C@@H](N2CCC(O)CC2)[C@H](O)C1 | -3 | 3
CC(=O)NC(C)(C(=O)OCC(C)C)C1CC1 (stereo not drawn) | -4 | 1
CCCCN(CC(=O)N1CCc2sccc2C1c1ccc(F)cc1)C(=O)C1CCC1 (stereo not drawn) | 25 | 15
Cc1noc(C(C)C)c1C(=O)NCc1cccc(C#N)c1 | 0 | 1
Cc1ccc(C2Nc3ccccc3N=C3CC(c4ccc5c(c4)OCO5)CC(=O)C32)s1 (stereo not drawn) | 2 | 14
CN1C(=O)CC(C(=O)NCCc2ccccc2)SC1=Nc1ccc(F)cc1 (stereo not drawn) | 4 | 3
CC(=O)c1cccc(NC(=O)Cn2ccc(-c3ccsc3)n2)c1 | -3 | -5
Cc1ccc(C)c(-n2c(C)c(C)n3c4c(=O)n(CC(=O)C(C)(C)C)c(=O)n(C)c4nc23)c1 | 12 | 6
Cc1cc[n+](C2=C(c3c(C)[nH]n(-c4ccc(F)cc4)c3=O)C(=O)N(c3ccc(F)cc3)C2=O)cc1C | -9 | -10
CCc1cccc(NC(=O)CCC(=O)N2CCC[C@H]2COC)c1 | -6 | -5
S=c1n(CN2CCN(c3ccccc3)CC2)nc(-c2cccs2)n1CC1CCCO1 (stereo not drawn) | -15 | -12
CC(=O)N1CCN(Cc2cccc(OCC(O)CN3CCCCCC3)c2)CC1 (stereo not drawn) | -3 | 0
CCCCc1nnc(NC(=O)CCN2C(=O)C3CC=CCC3C2=O)s1 (stereo not drawn) | 3 | 2
COc1cccc(NC(=O)CSc2ccc3nnc(-c4cccnc4)n3n2)c1 | -1 | 0
COc1cc(NC(=O)NCC(C)CC(C)O)cc(OC)c1 (stereo not drawn) | -1 | 2
COc1ccc2nc(SCc3nc4ccccc4s3)[nH]c2c1 | -3 | -3
CCc1ccc(C(=O)NCc2cccnc2OC)s1 | -2 | -1
Cc1cc(Nc2ccc(I)cc2)n2ncnc2n1 | 2 | 3
CCOC(=O)c1cnn(-c2sc(C(=O)OCC)c(C)c2C(=O)OCC)c1N | 50 | 39
O=C1OC(c2cccc(OC(F)F)c2)=NC1=Cc1ccccc1I | 4 | 3
COCCOCC(=O)N1CCc2c([nH]c3ccc(OC)cc23)C1c1ccccc1OC (stereo not drawn) | 3 | 20
O=C(NCc1ccco1)c1coc(CN(Cc2ccc3c(c2)OCO3)Cc2ccc(F)cc2F)n1 | 0 | -2
CC(C)c1ccc(C2C(C(=O)Nc3ccccc3)C(C)Nc3ncnn32)cc1 (stereo not drawn) | 8 | 17
CC(C)CC1=NC2(CCN(C(=O)c3cccc(N(C)C)c3)CC2)C(=O)N1 | -2 | -1
O=C(c1ccccc1-c1ccccc1)N1CCC(Cn2cc(CO)nn2)CC1 | 2 | 0
CC(C)(C)OC(=O)N1CCC(NC(=O)c2cccc(-c3nc4ccccc4[nH]3)c2)C1 (stereo not drawn) | -3 | 1
C/C=C\COC1CCCN(C(=O)c2ccc(C(F)(F)F)cc2)C1 (stereo not drawn) | -2 | -2
COC(=O)C(C)(C)NC(=O)CC1C(=O)NCCN1C(C)C (stereo not drawn) | 4 | 7
CN(C)[C@@H]1C[C@@H](CO)N(S(=O)(=O)c2ccc3c(c2)NC(=O)CO3)C1 | 3 | 6
CCSc1nnc(SCC(=O)c2cc(C)n(C)c2C)s1 | -7 | -1
Cc1cc(C)n(-c2ccc(NCc3cccc(C(F)(F)F)c3)nn2)n1 | -3 | 0
Cc1cccnc1CN1CCN(CCSc2ccccc2)CC1 | 3 | 2
CCCc1ccc(CN2CCC(O)(c3ccc4nc(C)ccc4c3)CC2)o1 | -7 | -5
CCN1CC2=C(N=C(N)C(C#N)C2c2ccc(SC)cc2)/C(=C/c2ccc(SC)cc2)C1 (stereo not drawn) | -1 | -1
COc1ccc(Cl)cc1-n1nnc(-c2nc(-c3ccccc3F)no2)c1C | -4 | 5
Cc1noc(-c2cccnc2)c1C(=O)NCCc1ccncc1 | 2 | -2
Cc1cccc(CN(Cc2ccccc2)C(=O)c2ccn(C)n2)n1 | 23 | -2
COc1ccc(N2CCN(Cc3ccncc3)C(C)C2=O)cc1 (stereo not drawn) | 8 | 14

New compounds follow
compound | NPYLR7 ag max-min | NPYLR7 ag
C=C1c2cc3c(cc2NC(=S)N1c1cccc(C(F)(F)F)c1)OCO3 | -3 | -2
CCc1nc2n(n1)C(=O)C(C(c1ccc(F)cc1)N1CCC(C)CC1)S2 (stereo not drawn) | 15 | -2
CCOP(=O)(OCC)C(Nc1ccccc1)c1ccc2c(c1)OCO2 (stereo not drawn) | -1 | 1
COC(=O)C1CCN(C(=O)C2CCC(=O)N(CCCc3ccccc3)C2)CC1 (stereo not drawn) | 2&5 | 4&9
CCCCN1CCCn2cccc2C1c1cccc(Oc2ccccc2)c1 (stereo not drawn) | 11 | 11
Cc1ccc(O)c(CN2CCCn3cccc3C2c2cc([N+](=O)[O-])ccc2Cl)c1 (stereo not drawn) | 26 | 23
N#CC=CN1CCN(Cc2ccc3c(c2)OCO3)CC1 | 0 | 3
CCOC(=O)C1CCCN(C(=O)c2cc(-c3ccc(C)c(C)c3)nn2-c2ccc(C)cc2C)C1 (stereo not drawn) | 10 | 13
CCc1nc2c(OCc3c(C)noc3C)cccn2c1N(C)C(=O)C(C)C | -2 | -7
COC(=O)COc1ccc2c(c1C)O/C(=C\c1ccco1)C2=O | -1 | 0
Cc1nc2cc(-c3ccccc3)sc2c(=O)n1N | 2 | 2
CSc1nc(NC(C)C)c2cnn(CCNC(=O)c3c(F)cccc3Cl)c2n1 | 4 | 5
CCOC(=O)C1(Cc2ccccc2F)CCCN(C(=O)c2ccc(-n3ccnc3)cc2)C1 (stereo not drawn) | -1 | 4
O=c1ccc(-c2ccccc2)nn1CCCNS(=O)(=O)c1ccccc1 | -3 | -3
CCc1nc(-c2nccn2CC2CCCCO2)c(C)[nH]1 (stereo not drawn) | 14 | 16
COc1cccc(-n2cc(CN(C)CCC(F)(F)F)cn2)c1 | 9 | 13
O=C(NN1C(=O)NC2(CCCCC2)C1=O)c1cccs1 | 13 | 7
COc1cccc(OS(=O)(=O)c2ccc3[nH]c(=O)[nH]c3c2)c1 | 9 | 11
CC(=O)c1cc(C(=O)N(C)Cc2c(C)noc2C)cs1 | 9 | 11
CCc1cccc(NC(=O)N2CCN(c3nc(Cc4ccc(C)cc4)ns3)CC2)c1 | -2 | -5
CCOC(=O)N1CCN(C(=O)CN2CCCc3c(C(N)=O)cccc32)CC1 | 0 | 0
O=C1CN(c2ccccc2)N=N1 | -3 | -1
O=c1cc(N2CCOCC2)oc2c(-c3cccc4c3sc3ccccc34)cccc12 | -6 | 3
Cc1cnc(CNC(=O)c2cccc(CC3CCNCC3)c2)cn1 | -2 | 2
Cc1c(Cl)c(C(F)(F)F)nn1CC(=O)Nc1cccc2ccccc12 | 1 | 11
CCN(C)C1=C(c2c(C)[nH]n(-c3cccc(C)c3C)c2=O)C(=O)N(c2ccc(F)cc2)C1=O | 8 | 3
COc1ccc(CC(=O)Nc2cc(F)ccc2F)cc1S(=O)(=O)N1CCOCC1 | -5 | -4
OCC1(CCOc2ccccc2)CCN(Cc2cc(Cl)ccc2O)CC1 | 4&6 | 5&3
NS(=O)(=O)c1ccc(C(=O)NCCCn2nc(-c3ccc(F)cc3)ccc2=O)cc1 | 0 | 2
CCSc1nc2ccccc2n1CC(=O)O | 5 | 5
COc1cccc(-c2cnnc(NCc3ccccc3OC)n2)c1 | -5 | -2
COc1cccc(-c2nnc(SCc3nc(C(=O)N(C)CCc4ccc(OC)c(OC)c4)cs3)n2-c2ccc(C)cc2)c1 | 15 | 15
O=S(=O)(c1ccc(Cl)c(Cl)c1)N1CCc2nc3ccccc3n2CC1 | -3 | 0
Cc1ccccc1CC1(C)C(=O)Nc2c(Cl)cccc21 (stereo not drawn) | 1 | -3
CCCCc1ncc(CN2CCC3(CC2)C(=O)N(C(C)C)C(=O)N3CCOC)[nH]1 | -3 | 1
COCc1cc(CN(C)Cc2nc(-c3ccc(C)s3)oc2C)n[nH]1 | 6 | 9
Cc1oc(-c2cccc(C(F)(F)F)c2)nc1CC(=O)N1CCc2ccccc2C1c1ccccc1Cl (stereo not drawn) | 1 | 2
CCc1nnc(C(C)S(=O)(=O)c2ccc(Br)cc2)o1 (stereo not drawn) | 9 | 9
CCOC(=O)C1CCCN(c2c(N3CCC(N4CCCCC4)CC3)c(=O)c2=O)C1 (stereo not drawn) | 7 | 6
N#Cc1nc2c(S(=O)(=O)c3ccccc3)c(N)n(CCCN3CCOCC3)c2nc1C#N | 4 | 9
CS(=O)(=O)N1CCC(Oc2ccccc2C(=O)N2CCOc3ccccc3C2)CC1 | 4 | -2
CC1=C(C(=O)OCCC(C)C)C(c2ccc(N(C)C)cc2)NC(=O)N1 (stereo not drawn) | -2 | 3
COC1C=CC(CNC(=O)c2cc3c(=O)n4ccccc4nc3n2C)(OC)O1 (stereo not drawn) | 2 | 4
OCCNc1cc(-c2cc(O)cc(CCC3CCCCN3)c2)ncn1 (stereo not drawn) | 0 | 3
O=C(Nc1cccc(F)c1)c1ccc(Br)c(S(=O)(=O)N2CCCCC2)c1 | -4 | 0
O=C(NCC1(CCO)CCOC1)C1CC1c1ccco1 (stereo not drawn) | -14 | -10
COCC(NC(=O)c1cnn2c1CCCC2)c1ccnn1C (stereo not drawn) | -6 | -3
CC1(Oc2ccccc2-c2ccno2)CCN(Cc2ccc(-c3ccccc3)o2)C1 (stereo not drawn) | 0 | 5
CC(C)=CCN1CCN(Cc2cccnc2)CC1CCO (stereo not drawn) | -11 | -8
CCOc1cc(CC(=O)N[C@@H](CC(C)C)c2ccccc2N2CCCCC2)ccc1C(=O)O | -11&-22 | -7&-18
CCCNc1nc(OC(C(F)(F)F)C(F)(F)F)nc(N2CCNCC2)n1 | -10 | -3
Cc1ccc(CN(CCc2ccccc2)C(=O)CN(C(=O)c2cccc(Br)c2)C2CC2)o1 | 6 | 13
COc1ccc2c(c1)CCc1cc(CCC(=O)N3CC=C(c4ccccc4)CC3)n(CCc3cccc(F)c3)c1-2 | -1 | 2
CCCCc1nc2cc(C(=O)N3CCc4[nH]cnc4C3c3cccnc3)ccc2o1 (stereo not drawn) | 7 | 7
CCCCOc1ccc(S(=O)(=O)NC(=O)C2(C)CCN2C(=O)CCc2ccccc2)cc1 (stereo not drawn) | 0 | 0
Cc1nn(C(=O)CNS(=O)(=O)c2ccc(Cl)cc2)c(C)c1Sc1ccc(Cl)cc1 | 0 | 0
Cc1ccc(Cc2nc(N3CCN(C(=O)c4cccc([N+](=O)[O-])c4)CC3)c3cnn(-c4ccccc4)c3n2)cc1 | 5 | -5
CSCCC(NC(=O)c1cccc(C)c1)C(=O)N(C)c1ccccc1 (stereo not drawn) | -7 | -8

Looked up by structure from the entries so far:
compound | NPYLR7 ag max-min | NPYLR7 ag
COc1ccc2c(c1)CCc1cc(CCC(=O)N3CC=C(c4ccccc4)CC3)n(CCc3cccc(F)c3)c1-2 | -1 | 2
CC1=C(C(=O)OCCC(C)C)C(c2ccc(N(C)C)cc2)NC(=O)N1 (stereo not drawn) | -2 | 3
CCCNc1nc(OC(C(F)(F)F)C(F)(F)F)nc(N2CCNCC2)n1 | -10 | -3
COC1C=CC(CNC(=O)c2cc3c(=O)n4ccccc4nc3n2C)(OC)O1 (stereo not drawn) | 2 | 4
CS(=O)(=O)N1CCC(Oc2ccccc2C(=O)N2CCOc3ccccc3C2)CC1 | 4 | -2
Cc1ccc(CN(CCc2ccccc2)C(=O)CN(C(=O)c2cccc(Br)c2)C2CC2)o1 | 6 | 13

Grouped by structure, the compounds so far with a nitro group on carbon.
compound | NPYLR7 ag max-min | NPYLR7 ag
Cc1ccc(O)c(CN2CCCn3cccc3C2c2cc([N+](=O)[O-])ccc2Cl)c1 (stereo not drawn) | 26 | 23
Cc1ccc(Cc2nc(N3CCN(C(=O)c4cccc([N+](=O)[O-])c4)CC3)c3cnn(-c4ccccc4)c3n2)cc1 | 5 | -5
